Assay outcomes as filed in PubChem BioAssay.
VACV mCherry inh – vaccinia inhibition (mCherry reporter); Potency, µM (doses to about 36.5 µM), for the others: at the highest dose activity change, negative = inhibition, actives largely listed as inhibitors; AID 720579; Vaccinia virus mCherry reporter infection, fluorescence; about a quarter of the inactives have no number; 310,000 compounds, 0.63% hits; active = well fitted inhibition curve with a large enough effect; inconclusive = small, poorly fitted or top-dose-only effect; inactive = no such curve, though single readings can be large or run the other way; tested in A549 cells; further: nearly all actives have a fitted effect of over 35% in size; inactives centre near -10
Vaccinia Venus – inhibitors of vaccinia virus (Venus reporter); Vaccinia virus Venus reporter expression, fluorescence; Potency, µM (titrated, usually from 36.5 µM), inactives show top-dose activity change, negative = inhibition, hits mostly inhibitors; 330,000 compounds, 0.46% hits; active means well fitted inhibition curve with a large enough effect; inconclusive means small, poorly fitted or top-dose-only effect; inactive means no such curve, though single readings can be large or run the other way; tested in A549 cells; further: nearly all actives have a fitted effect of over 30% in size; inactives centre near -10
* hit, by the source's call; i = inactive; ? = inconclusive; / = not tested or not shown; [ ] = dose if it differs, or a comment. On the % scale 0 is the no-effect control and ±100 the full control effect; potency means the concentration at half of the fitted maximal effect.

SMILES	VACV mCherry inh	Vaccinia Venus
CC(=O)Nc1ccc(S(=O)(=O)Nc2ccc(C)c([N+](=O)[O-])c2)cc1	-1%	-15%
O=C(c1ccco1)N1CCN(C(=O)c2cc3c(=O)oc4ccccc4c3s2)CC1	-12%	1%
NN=C(c1ccccc1)c1ccccc1	i	-6%
Cc1cc2c(c(SCC(=O)NCc3ccccc3Cl)n1)C(=O)OC2	-5%	2%
CCCCc1nc2ccccc2c(NC(=O)CN(CC)CC)c1CCC	i	-20%
CC12CCC(C(=O)Nc3ccc(SC(F)F)cc3)(CC1=O)C2(C)C (centres undefined)	i	-29%
O=C(COC(=O)C12CC3CC(CC(C3)C1)C2)Nc1ccc([N+](=O)[O-])cc1Br	-13%	-3%
O=C(c1ccc(-n2cncn2)c2ccoc12)N1CCOCC1	0%	-6%
O=C(CCl)N1c2ccccc2Oc2ccc3ccccc3c21	?	-24%
O=C(N/N=C/c1ccc(OC(=O)c2ccccc2)cc1)c1cccnc1	0%	-5%
CN(c1ccccc1)S(=O)(=O)c1ccc(C(=O)Nc2nnc(C3CC3)o2)cc1	i	-9%
COc1ccccc1NC(=O)CSc1c2c(nc3ccccc13)CCC2	-27%	?
O=C(O)CCNc1cc(N2CCN(C(=O)c3ccco3)CC2)c2noc3c2c1C(=O)c1ccccc1-3	26%	14%
COc1ccccc1NS(=O)(=O)c1ccc(C)c(C(=O)NC2CCN(Cc3ccccc3)CC2)c1	-25%	-19%
COCc1cc(C)nc2sc(C(=O)N3CCCC3)c(N)c12	i	-2%
CCc1ccc2ncc(S(=O)(=O)c3ccc(Cl)cc3)c(N3CCN(CC)CC3)c2c1	-5%[7.34 µM]	-11%[7.34 µM]
O=C(COC(=O)c1cc(S(=O)(=O)N2CCCC2)ccc1O)Nc1ccc(S(=O)(=O)N2CCOCC2)cc1	-13%[7.34 µM]	-10%[7.34 µM]
COc1ccccc1CNC(=O)CNC(=O)c1cn(-c2ccccc2OC)c(=O)c2ccccc12	i	-1%
CC(=O)NNS(=O)(=O)c1ccc(-c2cc(C(F)(F)F)n(C)n2)s1	-13%	-9%
Nc1ccc(-c2nc3cc(N)ccc3s2)cc1	-1%	-8%
COc1cccc(/C=C2\SC(=O)N(CC(=O)NCCCn3ccnc3)C2=O)c1	?	-23%
O=C(NCCc1ccc(Cl)cc1)c1ccc(CSCc2ccc(Cl)cc2)o1	-11%	-13%
Cc1sc2ncnc(SCC(=O)Nc3ccc(S(=O)(=O)N4CCOCC4)cc3)c2c1C	?	?
COc1ccc(C(=O)NCc2nnc(SC)n2C2CCCCC2)cc1	i	-18%
O=C(c1ccc2c(c1)OCO2)N1CCC2(CC1)Oc1ccc(Cl)cc1C(=O)C21CC(c2cccnc2)=NO1 (centres undefined)	-22%	-25%
COc1ccc(-c2nn(-c3ccccc3)cc2/C=N/NC(=S)NC(C)C)cc1OC	-5%	-22%
COc1ccc(NC(=O)C2=C(C)Nc3nc(SCc4ccc(Cl)cc4)nn3C2c2cccc(OC)c2OC)cc1 (centres undefined)	-16%	-8%
CCN(C(=O)COC(=O)c1cc(-c2cccs2)nc2ccccc12)C1CCS(=O)(=O)C1 (centres undefined)	-9%	-7%
COc1ccc(/C=C2\SC(=S)N(CC(=O)NNC(=O)c3ccncc3)C2=O)cc1	-3%	-2%
CCc1ccc(C2NC(=O)c3[nH]nc(-c4cccc(OC)c4)c32)cc1 (centres undefined)	-9%	-7%
CC(=O)NCCC(=O)Nc1cc(S(=O)(=O)N2CCOCC2)ccc1Oc1ccc(F)cc1	i	-1%
Cc1ccnc(SCC(=O)N2CCc3ccccc3C2)n1	-25%	-4%
COc1ccc(Cl)cc1NC(=O)Cn1nc(C(F)(F)F)c2c1CCC2	-2%	7%
CCn1c(=O)n(CC(=O)NCc2ccccc2OC)c(=O)c2ccccc21	-9%	-5%
CCN1CCc2c(sc(NC(=O)Cc3ccccc3)c2C(N)=O)C1	?	?
O=C(NC(=Nc1nc2ccccc2o1)NC(=O)c1ccccc1)c1ccccc1	-11%	-5%
COc1ccccc1NC(=O)C1CCCN(S(=O)(=O)c2c(C)noc2C)C1 (centres undefined)	i	-20%
O=C(Nc1nnc([C@H]2C[C@H](O)[C@@H](CO)O2)s1)Nc1cccc(Cl)c1Cl	-14%	3%
CCCNc1c(NC(=O)c2ccc(OCCC)cc2)c(=O)oc2ccccc12	i	0%
C/C(=N\Nc1ccc([N+](=O)[O-])cc1)c1ccco1	-17%	-9%
CC(C)N(C(=O)[C@H]1C[C@H](CC(=O)NCC23CC4CC(CC(C4)C2)C3)C(=O)N2CCc3c([nH]c4ccc(Cl)cc34)[C@]12C)C(C)C	?	13µM*
CN1CCN(NC(=O)c2cc(-c3ccc(Br)s3)nc3ccccc23)CC1	i	-16%
Cc1cc(Br)cc2c(C(=O)Nc3c(C)n(C)n(-c4ccccc4)c3=O)cc(-c3cccs3)nc12	-1%	-18%
O=C(CN1C(=O)NC2(CCCCCCC2)C1=O)N1CCc2ccccc2C1	i	-21%
O=C(C(=O)N1CCCc2ccccc21)N1CCCc2ccccc21	i	-3%
CC(=O)NNc1cc(=O)c2c(=O)n(C)c(=O)n(C)c2[nH]1	-9%	-9%
Cc1cccc(-c2ccc3[nH]c4c(c3c2)CCN2C[C@@H]([C@H](C)O)[C@@H](N(C)C(=O)NC3CCCCC3)C[C@@H]42)c1	?	-26%
COc1ccccc1N(Cc1cc(=O)[nH]c2ccccc12)C(=O)c1cccc([N+](=O)[O-])c1	?	-9%
O=C(N/C=C\n1cnc2cc(C(F)(F)F)ccc21)c1ccc([N+](=O)[O-])cc1	-26%	-21%
Cc1ncc(CO)c(/C=N/NC(=S)Nc2ccc(C(C)C)cc2)c1O	-20%[7.34 µM]	-2%[7.34 µM]
CNC(=S)NCCc1c[nH]c2ccc(OC)cc12	-11%	-19%
COc1ccc(CNC(=O)CN2C(=O)c3ccccc3S2(=O)=O)cc1	-9%	-13%
COc1cc(C(=O)NCCC(=O)NCCc2ccc(Cl)cc2)cc(OC)c1OC	i	-5%
CC1CCN(C(=O)c2scc3c2OCCO3)CC1	-6%	1%
Cc1ccn2cc(CSc3ccccc3)nc2c1	/	0%
O=C(Cn1ccc2cc(S(=O)(=O)N3CCCC3)ccc21)NCc1ccc(Cl)cc1	-1%	-13%
COCCNC(=O)c1cn(CCOC)c(=O)c2c1c1ccccc1n2C	-11%	-3%
NS(=O)(=O)c1cccc(NC(=O)COC(=O)/C(=C/c2cccs2)c2cccs2)c1	-24%	-13%
S=C1NC(c2ccccc2)=NCN1c1ccc(Cl)cc1	-14%	-10%
COC(=O)c1csc(-c2ccc(CO)o2)n1	-1%	4%
Additional results follow:
SMILES	VACV mCherry inh	Vaccinia Venus
CCN(CC)C(=O)[C@H]1C[C@H](CC(=O)NCCN2CCOCC2)C(=O)N2CCc3c([nH]c4cc(CCC(=O)N(C)C)ccc34)[C@]12C	i	-10%
CC1(C)CC(=O)C2=C(C1)N(CCN1CCOCC1)C1=C(C(=O)CC(C)(C)C1)C2c1cccc(F)c1	-15%	-8%
Cc1ccc2c(C)c(C(=O)Nc3nnc(C)s3)oc2c1	-6%	2%
COc1ccc(C)cc1NC(=O)C1CCCN(S(=O)(=O)c2cccs2)C1 (centres undefined)	-22%	-2%
Cc1ccccc1NC(=O)C(C)OC(=O)CCC(=O)N(CC(C)C)c1c(N)n(CC(C)C)c(=O)[nH]c1=O (centres undefined)	-18%	-11%
COc1ccccc1-c1cc(C(F)(F)F)nc(S(=O)(=O)CCCC(=O)Nc2ccc(F)cc2F)n1	-1%	-16%
NNC(=O)c1nn(-c2ccc(Cl)cc2)cc1O	?	-2%
COc1ccccc1-n1c(CNC(=O)c2ccc(S(=O)(=O)N3CCOCC3)cc2)n[nH]c1=S	i	-3%
CC(=O)Oc1ccc2c(=O)c(Oc3ccccc3)c(C)oc2c1OC(C)=O	?	?
CCc1ccc(OCC(=O)N(CC)CC)cc1	i	9%
COc1ccc(C(CNC(=O)CSc2ccccc2F)N2CCOCC2)cc1 (centres undefined)	-1%	-14%
COC(=O)/C=C1\OCc2cc(C)ccc21	-16%	2%
O=C(CCCSc1nc2sc3c(c2c(=O)[nH]1)CCC3)NCCO	/	-23%
CCC(C)(C)NC(=O)C1CCC(CNS(=O)(=O)c2cccc3nsnc23)CC1 (centres undefined)	-17%[7.34 µM]	-2%[7.34 µM]
Cc1ccc(N2CCN(C(=O)c3ccc(Nc4nc5ccccc5n5nnnc45)cc3)CC2)c(C)c1	-16%	-1%
CC(C)CNC(=O)COC(=O)c1ccc(Cl)c(S(N)(=O)=O)c1	-11%	-9%
COc1ccc(OC)c(NC(=O)C2(C)CCN2Cc2ccccc2Cl)c1 (centres undefined)	17%	-10%
Cn1c(Oc2ccncc2)nc2cc(-c3ccsc3)sc2c1=O	-26%	?
COc1ccc(N2C(=O)CC(Nc3ccc(N4CCOCC4)cc3)C2=O)c(OC)c1 (centres undefined)	-9%	-3%
COc1cc2c(cc1OC)C(c1ccc(C)o1)CC(=O)N2 (centres undefined)	4%	2%

Another view of part of the listing above.
Values run as follows: VACV mCherry inh, Vaccinia Venus
> CC1(C)CC(=O)C2=C(C1)N(CCN1CCOCC1)C1=C(C(=O)CC(C)(C)C1)C2c1cccc(F)c1
    -15%, -8%
> Cc1ccc2c(C)c(C(=O)Nc3nnc(C)s3)oc2c1
    -6%, 2%
> COc1ccc(C)cc1NC(=O)C1CCCN(S(=O)(=O)c2cccs2)C1 (centres undefined)
    -22%, -2%
> Cc1ccccc1NC(=O)C(C)OC(=O)CCC(=O)N(CC(C)C)c1c(N)n(CC(C)C)c(=O)[nH]c1=O (centres undefined)
    -18%, -11%
> COc1ccccc1-c1cc(C(F)(F)F)nc(S(=O)(=O)CCCC(=O)Nc2ccc(F)cc2F)n1
    -1%, -16%
> NNC(=O)c1nn(-c2ccc(Cl)cc2)cc1O
    ?, -2%

The listing continues.
SMILES	VACV mCherry inh	Vaccinia Venus
Cc1cc2c(c(=O)o1)C(c1cccs1)C(C#N)=C(N)O2 (centres undefined)	i	-8%
O=C(CNC(=O)c1ccccc1)OCc1cc(=O)n2nc(C3CC3)sc2n1	8%	1%
COc1cccc(CCN2C(=O)C(=O)N([C@@H](CNCc3ccccc3)Cc3ccccc3F)C[C@@H]2C(C)(C)C)c1	-5%	?
COc1ccc(C(=O)Nc2cccc(C(=O)N/N=C/c3ccc(OC)cc3OC)c2)cc1	?	-16%
O=C(Nc1cc(Cl)ccc1Cl)c1ccc(-c2ccccc2)cc1	-2%	-3%
CCOC(=O)c1ccc(N/C=C/C(=O)c2ccco2)cc1	0%	-9%
O=C(CSc1cccs1)Nc1cccc2ccccc12	?	?
CCC(CC)C(=O)N(C)c1c(C)nc2c(OCc3cccc(OC)c3)cccn12	i	-7%
O=C(CCC(=O)c1ccccc1)NCCOc1ccccc1	-1%	-18%
COc1ccc(OC)c(NP(=O)(Oc2ccc(Cl)cc2)Oc2ccc(Cl)cc2)c1	-11%	-8%
Cc1ccc(OCCn2c(=O)n(C)c3ccccc32)cc1	-9%	1%
Cc1ccccc1-c1noc(-c2ccc(NCc3cccnc3)c([N+](=O)[O-])c2)n1	0%	-20%
Cn1cnc([N+](=O)[O-])c1S(=O)(=O)Oc1ccc(Cl)cc1	?	-14%
O=[N+]([O-])c1ccc(CSc2nnc(Cc3ccccc3)n2-c2ccc(F)cc2)cc1	-6%	-17%
COc1ccc(CNC(=O)C2=C(C)C(=O)OC23CCN(C(C)=O)CC3)cc1	-9%	-1%
CCOC(=O)c1c(C)nc2c(c1-c1ccc(OC)c(OC)c1)C(=O)c1ccccc1-2	i	-11%
CCOc1ccc(C(=O)c2cn(Cc3ccccc3OC)c3cc4c(cc3c2=O)OCCO4)cc1	1%	-6%
CCOC(=O)n1c(=O)n(Cc2cccc(F)c2)c2ccccc21	-11%	0%
O=C(Cc1ccccc1)Nc1sc2c(c1C(=O)Nc1ccccc1Cl)CCC2	-8%	-3%
C/C(=N\OCC(=O)Nc1ccc2c(c1)OCCO2)c1ccc2c(c1)OCCO2	-22%	-18%

5 consecutive compounds from above, for reference:
SMILES	VACV mCherry inh	Vaccinia Venus
COc1ccc(OC)c(NP(=O)(Oc2ccc(Cl)cc2)Oc2ccc(Cl)cc2)c1	-11%	-8%
Cc1ccc(OCCn2c(=O)n(C)c3ccccc32)cc1	-9%	1%
Cc1ccccc1-c1noc(-c2ccc(NCc3cccnc3)c([N+](=O)[O-])c2)n1	0%	-20%
Cn1cnc([N+](=O)[O-])c1S(=O)(=O)Oc1ccc(Cl)cc1	?	-14%
O=[N+]([O-])c1ccc(CSc2nnc(Cc3ccccc3)n2-c2ccc(F)cc2)cc1	-6%	-17%

Additional compounds.
SMILES	VACV mCherry inh	Vaccinia Venus
CCOC(=O)C1=C(C)NC(C)=C(C(=O)OCC)C1C(=O)OCC(=O)N(C)C1CCS(=O)(=O)C1 (centres undefined)	-3%	-12%
CCN(C(=O)COC(=O)c1ccc(OCc2c(C)noc2C)cc1)c1ccccc1	/	-14%
O=C(CN1C(=O)COc2ccc(S(=O)(=O)N3CCCCCC3)cc21)N1CCN(c2ccc(Cl)cc2)CC1	-19%	-3%
C1=C(c2ccccc2)CCN(c2ncnc3nc[nH]c23)C1	-29%	-30%
COc1ccc2cc3c(N)nn(C(=O)c4cccc([N+](=O)[O-])c4)c3nc2c1	-22%	-12%
CCc1nnc(NC(=O)CN2CCN(Cc3ccc(F)cc3)CC2)s1	-11%	-10%
CCn1c(C(=O)N2CCC(C(=O)NCCc3ccc(C)cc3)CC2)cc2sccc21	-9%	1%
O=C1C2C3C=CC(CC3)C2C(=O)N1/N=C/c1c(O)ccc2ccccc12 (centres undefined)	?	?
CCOCCCNC(=O)c1ccc(C2SCC(=O)N2Cc2ccccc2)cc1 (centres undefined)	-3%	-3%
Cc1ccc(S(=O)(=O)N(C)C)cc1NC(=O)CCCNC(=O)c1ccc(Cl)cc1	59%[activator]	-6%
